# Compound activity (PubChem BioAssay)
# LASV entry inh: qHTS for Inhibitors of binding or entry into cells for Lassa Virus | Lassa virus pseudotype entry inhibition, cell reporter; control for the full effect not named in the record | Potency, µM (series often up to 37.9 µM), for inactives: at the highest dose activity change, negative = inhibition, usual class: inhibitors | hit rate 1.2% among 300,000 | AID 540256, 2011; active means well fitted inhibition curve with a large enough effect; inconclusive means small, poorly fitted or top-dose-only effect, or effect the other way; inactive means flat fitted curve, though single readings scatter; tested in HEK293 cells; further: on the % scale 0 is the no-effect control and ±100 the full control effect; nearly all actives have a fitted effect of over 50% in size; luciferase read-out
# MARV entry inh: qHTS for inhibitors of binding or entry into cells for Marburg Virus. Marburg virus pseudotyped entry inhibition, cell reporter; control for the full effect not named in the record; about a third of the inactives were read at about 46 µM. Potency, µM (top dose mostly 37.8 µM), for the others: top-dose activity change, negative = inhibition, actives largely listed as inhibitors. hit rate 1.8% among 300,000. AID 540276, 2011; active = well fitted inhibition curve with a large enough effect; inconclusive = small, poorly fitted or top-dose-only effect, or effect the other way; inactive = flat fitted curve, though single readings scatter; tested in HEK293 cells; about a fifth of its hits are not listed in these tables; further: on the % scale 0 is the no-effect control and ±100 the full control effect; luciferase read-out
# Cruzain inh noDet: qHTS Assay for Promiscuous and Specific Inhibitors of Cruzain (without detergent) | Cruzipain (Trypanosoma cruzi), P25779 | purified cruzain, Z-FR-AMC fluorescence, no detergent | Potency, µM, inactives show max response, negative = inhibition, actives largely listed as inhibitors | hit rate 2.3% among 200,000 | AID 1476, 2009;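 further: plate controls were enzyme without inhibitor for no effect and buffer without enzyme for full effect; nearly all actives have a fitted effect of over 40% in size; top concentration of the series not given in the record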
# Target sequence (P25779 123-467 limits assumed): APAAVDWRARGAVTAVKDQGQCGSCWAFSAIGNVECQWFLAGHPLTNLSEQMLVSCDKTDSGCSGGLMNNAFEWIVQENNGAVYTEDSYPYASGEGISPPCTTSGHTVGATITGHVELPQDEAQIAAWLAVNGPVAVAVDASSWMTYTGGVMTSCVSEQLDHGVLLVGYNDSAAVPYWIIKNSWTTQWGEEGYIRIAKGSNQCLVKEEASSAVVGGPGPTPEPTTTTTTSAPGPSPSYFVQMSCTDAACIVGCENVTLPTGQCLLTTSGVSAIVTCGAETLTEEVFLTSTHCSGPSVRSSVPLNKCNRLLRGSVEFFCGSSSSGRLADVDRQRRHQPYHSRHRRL
#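 Purified cruzain at 1.5 nM, pre-incubated 15 min with compound at room temperature in 100 mM sodium acetate pH 5.5, 5 mM DTT, 0.00005% Triton X-100. Reaction started with 2 uM Z-FR-AMC; AMC fluorescence increase over 60 s gives rate.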
# NS1 inh: qHTS Assay for Inhibitors of Influenza NS1 Protein Function. hit rate 0.4% among 270,000. S. cerevisiae slowed by influenza A NS1, growth recovery by OD600. AID 2326, 2010. Potency, µM (titrated, usually from 46.1 µM), inactives show at the highest dose activity, positive = more growth; active means well fitted rising curve with a large enough effect; inconclusive means small, poorly fitted or top-dose-only effect; inactive means no such curve, though single readings can be large or run the other way; further: nearly all actives have a fitted effect of over 50% in size
#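 In this qHTS, NS1 from influenza A is expressed in budding yeast, where it slows growth. Cells are switched from glucose to 2% galactose medium (pH 6.0, -URA), treated with compound, and growth recovery is read at OD600.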
# SARS PLpro yeast: qHTS of Yeast-based Assay for SARS-CoV PLP | S. cerevisiae expressing SARS-CoV PLpro, growth rescue; control for the full effect not named in the record | Potency, µM (titrated, usually from 32.9 µM), inactives show at the highest dose activity, positive = growth rescue | hit rate 0.19% among 330,000; active means well fitted rising curve with a large enough effect; inconclusive means small, poorly fitted or top-dose-only effect; inactive means no such curve, though single readings can be large or run the other way; further: 0% is about no effect; nearly all actives have a fitted effect of over 55% in size; growth read by luminescence after 48 h
# 2A StopGo: High Throughput Screening for Foot and Mouth Disease Virus Antivirals | human cells with a luciferase reporter of 2A StopGo recoding; control for the full effect not named in the record | Potency, µM (highest dose often 57.9 µM), for the others: at the highest dose signal change, negative = less light | hit rate 1.2% among 410,000; active = well fitted falling curve with a large enough effect; inconclusive = small, poorly fitted or top-dose-only effect; inactive = no such curve, though single readings can be large or run the other way; tested in HEK293T cells; further: on the % scale 0 is the no-effect control and ±100 the full control effect; nearly all actives have a fitted effect of over 45% in size; luciferase light after 4 h
# RE007 growth inh: qHTS Assay for Inhibitors of the HIV-1 protein Vpr; S. pombe RE007 Vpr strain, BacTiter-Glo ATP luminescence, 24 h; control for the full effect not named in the record; Potency, µM (series often up to 92.2 µM), without a hit: top-dose activity change, negative = less growth; hit rate 0.21% among 360,000; AID 651644, 2012; active = well fitted falling curve with a large enough effect; inconclusive = small, poorly fitted or top-dose-only effect; inactive = no such curve, though single readings can be large or run the other way;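 further: on the % scale 0 is the no-effect control and ±100 the full control effect; nearly all actives have a fitted effect of over 50% in size; the assay follows cell death caused by Vpr and the record does not say whether a fall means rescue or toxicity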
#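 Fission yeast strain RE007, carrying one chromosomally integrated HIV-1 vpr copy, was seeded at OD 0.01 in PMG+AL medium with 23 nL pinned compound. After 24 h at 30 °C and 99% humidity, viability was read by BacTiter-Glo luminescence.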
# Cruzain inh Det: qHTS Assay for Promiscuous and Specific Inhibitors of Cruzain (with detergent); Cruzipain (Trypanosoma cruzi), P25779; hit rate 0.43% among 200,000; purified cruzain, Z-FR-AMC fluorescence, 0.01% Triton; Potency, µM, without a hit: max response, negative = inhibition, most hits filed as inhibitors; AID 1478, 2009;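 further: plate controls were neutral wells for no effect and buffer without enzyme for full effect; nearly all actives have a fitted effect of over 40% in size; top concentration of the series not given in the record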
#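 Compounds were screened in titration against cruzain (1.5 nM) with 0.01% Triton X-100 to counter colloidal aggregation. Activity was the AMC fluorescence increase over 60 s after adding 2 uM Z-FR-AMC at pH 5.5.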
# The depositor's hits bear a star; ? = inconclusive; / = no result given; & = joins results of further samples; [ ] = another dose, or the depositor's remark. Unless noted, the call rests on the fitted dose curve; in most records, active means well fitted curve in the direction sought with a large enough effect; inconclusive means small, poorly fitted or top-dose-only effect, or another doubt; inactive means no such curve, though single readings can be large; an effect the other way counts as inactive or inconclusive. Potency means the concentration at half of the fitted maximal effect.
SMILES	LASV entry inh	MARV entry inh	Cruzain inh noDet	NS1 inh	SARS PLpro yeast	2A StopGo	RE007 growth inh	Cruzain inh Det
COc1ccc(N(C)C(=O)c2nn(-c3ccc(C)cc3)c(=O)n(C)c2=O)c(OC)c1	-19%[46.1 µM]	/	-4%	/	/	-22%	/	-3.5%
O=c1cc(CSc2ccccn2)[nH]c(=O)[nH]1	7%	-12%	-7%	0%	8%	-2%	0%	-0.3%
O=C1N(Nc2ccccc2)C(c2ccc(Br)cc2)C12CCCC2 (configuration not stated)	11%	-19%	-3%	5%	2%	-10%	12%[3.69 µM]	-1.4%
COc1cc(-c2n[nH]c(=S)n2-c2ccc(C)cc2)cc(OC)c1OC	-12%	-3%	/	1%	-7%	3%	9%	/
COC(=O)c1[nH]c2cc(OC)ccc2c1NC(=O)CCN1CCN(c2ccccc2)CC1	-3%	-13%	-3%	1%	7%	-11%	5%	1.2%
CCOc1ncccc1C(=O)Oc1ccc2c(c1)OCO2	-18%	0%[46.1 µM]	-2%	-52%	1%	2%	-9%	-6.9%
COc1ccc(CNC(=O)C(=O)NCC(c2ccc3c(c2)OCO3)N2CCOCC2)cc1 (configuration not stated)	7%[46.1 µM]	/	-4%	/	/	-25%	/	-4.8%
COCCCNc1ccnc2c(Cl)cccc12	-15%	?	-5%	-2%	6%	-18%	-13%	-2.8%
O=C(COC(=O)/C=C/c1ccc(Cl)cc1Cl)Nc1ccc2c(c1)OCCO2	?	?	/	6%	1%	-4%	-9%	/
Cc1ccc(-n2nnnc2SCC(=O)Nc2cc(C)on2)c(C)c1	0%	-1%[46.1 µM]	/	17%	-1%	-16%	-1%	/
COc1ccc(C2=NN(CCC(=O)NC3CCCCCC3)C(=O)CC2)cc1	-25%[46.1 µM]	0%[46.1 µM]	/	-2%	3%	-7%	-1%	/
O=C(COc1ccc([N+](=O)[O-])cc1)Nc1nc2c(s1)CCCC2	-12%[46.1 µM]	-3%[46.1 µM]	-16%	/	/	?	/	-1.3%
O=C(Nc1ccc2c(c1)OCO2)O[C@@H]1C[C@H]2CCCC(=O)N3CC[C@@H](C1)[C@@H]23	/	/	/	-14%	0%	14%	-8%	/
CCOC(=O)c1sc2nc(C)nc(SCC(=O)NC3CCS(=O)(=O)C3)c2c1C (configuration not stated)	-9%	-23%	/	/	-6%	?	-5%	/
O=C(CSc1nnc(-c2ccccn2)o1)Nc1ccccc1F	?	?	/	7%	-12%	12%	7%	/
COc1cc(OC)c(Nc2nc3ccc(C(=O)c4ccccc4)cc3n3c(C)nnc23)cc1Cl	9%[46.1 µM]	1%[46.1 µM]	5%	/	/	-3%	/	1.0%
O=C(CN1CCOCC1)c1c[nH]c2ccccc12	-6%	5%	-3%	3%	0%	18%	3%	0.8%
COc1ccc(C)cc1S(=O)(=O)N1CCN(C(=O)c2ncoc2-c2ccc(F)cc2)CC1	1%	2%[46.1 µM]	/	-10%	0%	?	7%	/
CC(=O)N1CC=C2C(C#N)=C(N)C(C#N)(C#N)C(CCc3ccccc3)C2C1 (configuration not stated)	8%	22%	7%	-7%	8%	?	24%	-4.3%
FC(F)(F)c1ccc(CN2C[C@@H]3C(c4ccc(Cl)nc4)C4(c5ccccc5)CC3(C4)[C@H]2c2ccccc2)cc1 (some centres not stated)	/	/	-10%	13%	-2%	-10%	-21%	0.5%
CCn1c(SC)nc(O)c(C(c2ccc(OC)c(O)c2)c2c(O)nc(SC)n(CC)c2=O)c1=O	0%	-4%	-6%	-10%	-1%	-23%	-2%	1.5%
c1ccc(-c2nccc3ccccc23)cc1	-1%	15%	/	/	/	9%	-13%	/
COc1ccc(-n2nnnc2SCC(=O)Nc2ccccc2)cc1	-1%	5%	?	-10%	5%	-9%	9%	4.7%
CNC(=S)SCCOc1ccccc1C	11%	0%	0%	-2%	?	40%[activator]	-16%	-3.4%
COc1cc(OC)c2c(-c3ccccc3)cc(=O)oc2c1C(CC(=O)N1CCOCC1)c1ccc2c(c1)OCO2 (configuration not stated)	/	/	/	?	0%	38%[activator]	9%	/
COC1=CC(=O)OC(CCc2ccc3c(c2)OCO3)C1 (configuration not stated)	/	/	12%	/	/	?	1%	2.8%
O=C(CCSc1nc(-c2ccco2)cc(C(F)(F)F)n1)N1CCN(c2ccccn2)CC1	?	?	?	-64%	-4%	?	7%	-13%
CC(C)(C)NC(=O)CN(Cc1cccs1)C(=O)CCC(=O)Nc1nccs1	-13%	6%	-12%	6%	-2%	/	1%	13%
O=C1c2cccc3cccc(c23)C(=O)N1c1cccc(O)c1	-18%[46.1 µM]	-20%[46.1 µM]	/	11%	1%	-11%	8%	/
O=C(CN1CCN(C(c2ccccc2)c2ccccc2)CC1)N1N=CCC1c1ccccc1 (configuration not stated)	?	8.9µM*	/	2%	0%	-21%	4%	/
COC(=O)C1=C(c2ccccc2OCc2ccccc2)C[C@@H]2CC[C@H]1N2C(=O)NCc1cccc(F)c1	/	-8%	/	/	0%	-19%	12%	/
CCc1nc(N2CCN(C(=S)NCCCOC)CC2)c2c3c(sc2n1)CCCC3	/	/	/	-84%	-16%	?	6%	/
CC(=O)Nc1sc2c(c1C(N)=O)CCCC2	2%	-1%	9%	-5%	-3%	6%	-18%	1.9%
CCc1nnc2n1N=C(c1cccc([N+](=O)[O-])c1)CS2	/	/	/	7%	-1%	-18%	-2%	/
CC(NC(=O)NC(N)=O)(C(F)(F)F)C(F)(F)F	10%	-16%&-16%	-11%	4%	-2%	/	-5%	6.7%
Clc1ccc(C(CCN2CCCC2)Cc2ccccc2)cc1 (configuration not stated)	?	?	/	3%	0%	-17%	-7%	/
O=C(NCCCN1CCCC1=O)c1c(O)nc2ccccn2c1=O	/	/	/	1%	-1%	-2%	-10%	/
CCCNC1=C(C)C(=O)C2=C(C1=O)C(COC(N)=O)[C@]1(OC)C3NC3CN21 (some centres not stated)	?	6.3µM*	/	0%	1%	-3%	0%	/
CCOc1ccc(/C(O)=C2/C(=O)C(=O)N(CCN(CC)CC)C2c2cccs2)cc1 (configuration not stated)	/	/	/	-6%	-2%	17%	-13%	/
CSc1ncccc1C(=O)NC1CCCCCCC1	-23%[46.1 µM]	18%[46.1 µM]	/	-1%	-1%	-5%	20%	/
Cc1scc(C(=O)NNC(=S)NCC2CCCO2)c1-c1ccccc1 (configuration not stated)	-2%	?	-4%	-19%	-5%	-18%	-15%	-1.6%
CSCCC(NC(=O)C1CCC(C)CC1)C(=O)NCc1ccco1 (configuration not stated)	-1%	16%	-10%	-9%	4%	0%	5%	6.0%
COc1ccc(OC)c(C2CC(=O)c3c([nH]c(C(=O)OCc4ccc(C)cc4)c3C)C2)c1 (configuration not stated)	-10%[46.1 µM]	?	1%	/	/	0%	/	-2.7%
O=C1NC(=O)C(=Cc2ccc(N3CCOCC3)o2)C(=O)N1	-11%[46.1 µM]	10%[46.1 µM]	/	/	-1%	9%	-14%	/
CN(C)C(=O)CNC(=O)C1CCCCC1	?	3%[46.1 µM]	1%	4%	0%	-12%	7%	8.4%
Cc1ccc(NC(=S)Nc2cccc3ccccc23)cc1	2%[46.1 µM]	-7%[46.1 µM]	/	20%	15%	-20%	0%	/
Cc1nnc(SCCn2c(N3CCC(Cc4ccccc4)CC3)nc3c2c(=O)[nH]c(=O)n3C)s1	?	?	/	0%	1%	?	-4%	/
O=C(Nc1ccccc1C(=O)N1CCCC1)c1ccccc1	0%	8%	1%	-8%	6%	/	11%	0.0%
COc1ccc(NC(=O)c2nc(C)c(C3(C)CC(c4ccccc4)=NO3)s2)cc1 (configuration not stated)	/	/	/	1%	-1%	-15%	-15%	/
O=C(Nc1ccccc1)N(O)c1ccc(Cl)cc1	30%	?	6%	-72%	-5%	30%	-4%	2.1%
CC(C)OP(=O)(OC(C)C)C(O)c1ccc2c(c1)OCO2 (configuration not stated)	4%	-4%	-2%	-1%	-2%	-12%	-9%	-0.1%
CSc1ccccc1NC(=O)Nc1ccccc1Cl	15%	10%	/	-6%	-2%	22%	-16%	/
COC(=O)c1ccc(C(=S)NCC2(N(C)C)CCCCC2)cc1	-19%	?	/	-8%	7%	23%	-13%	/
COc1cccc(NC(=O)c2cnn(-c3ccccc3)c2C)c1	/	/	/	-62%	-6%	17%	-12%	/
CCOC(=O)Cn1c(-c2ccc(OC)cc2)c(-c2ccc(OC)cc2)nnc1=O	/	/	/	6%	1%	-14%	-4%	/
O=C(NCCc1ccc2c(c1)OCCO2)c1ccccc1F	?	3%	-2%	-22%	14%	9%	21%	-0.8%
COc1cccc(-n2c(-c3ccc(C)cc3)cc3c2CC(C)(C)CC3=O)c1	-1%[46.1 µM]	-2%[46.1 µM]	-7%	/	/	-17%	/	-0.3%
CC(C)(C)C1=Nn2c(nnc2-c2n[nH]c3c2CCC3)SC1	?	3%[46.1 µM]	-10%	-2%	-1%	-4%	1%	7.9%
Clc1ccc(Nc2nc(C3CC3)cs2)cc1	/	/	?	-52%	24%	37%[activator]	-27%	-13%
O=C1OCc2cc(NC(=O)C3CCCO3)ccc21 (configuration not stated)	-3%	20%	5%	1%	0%	0%	-4%	3.9%
CCOC(=O)c1cccc(NC(=O)CNC(=O)C2CCCCC2)c1	4%	-7%	5%	4%	0%	15%	-8%	5.1%
CCCN1Cc2cccc(C(=O)NCCc3cccc(C)c3)c2C1=O	/	/	/	-11%	-1%	6%	-2%	/
COC(=O)CNc1nc(Cl)nc(NC2CCCCC2)n1	/	/	/	-12%	1%	18%	9%	/
